# Vaccinia inh – Vaccinia orthopox stage-specific inhibition. Vaccinia-infected cells, mCherry/Venus stage reporter fluorescence; stronger effect = lower value; some inactives read as strong as hits. activity change (mCherry), % (no concentration beside the values). hit rate 0.01% among 89,000;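 active = mCherry past -33% and 40 or more points under the early reporter, replicates agreeing; inconclusive = past -33% without that gap or agreement; tested in A549 cells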;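 also: scaled between vehicle wells and reference inhibitor wells; 23 nL library stock went into each well; one replicate is shown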
# Vaccinia inh Venus – second read-out of Vaccinia inh, no call of its own (marks repeat the call); activity change (Venus), %; measured here: Venus reporter, other viral stage;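 negative = less Venus signal; first of two replicates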
# Active calls of the source: *; ? = inconclusive; . = not tested or not shown; & = joins results of further samples.
# Each structure is followed by: Vaccinia inh, Vaccinia inh Venus
O=C(C[C@H]1C=C[C@H](NC(=O)Nc2ccc(C(F)(F)F)cc2)[C@@H](CO)O1)NCc1cccc(F)c1
 : -7, -7
CN1c2ccc(C#Cc3cccnc3)cc2[C@H]2[C@H](CCN2S(=O)(=O)c2ccc(F)cc2)[C@H]1CO
 : -11, 5
O=C(C[C@H]1C[C@H]2c3cc(NC(=O)CC4CC4)ccc3O[C@H]2[C@H](CO)O1)NCc1ccccc1
 : 5, -3
Cc1ccc(-c2ccc3c(c2)O[C@@H](CN(C)Cc2ccncc2)[C@@H](C)CN([C@@H](C)CO)S3(=O)=O)cc1
 : ?, .
C[C@@H]1CN([C@@H](C)CO)S(=O)(=O)c2ccc(C3=CCCCC3)cc2O[C@H]1CN(C)C(=O)Cc1cccnc1
 : 9, -4
C[C@@H]1CN([C@@H](C)CO)C(=O)c2cc(C#Cc3ccccc3)cnc2O[C@@H]1CN(C)S(=O)(=O)c1ccccc1F
 : ?, .
COc1ccc(NC(=O)Nc2ccc3c(c2)OC[C@H](C)NC[C@@H](C)[C@@H](OC)CN(C)C3=O)cc1
 : -3, 10
CCCC#Cc1ccc([C@H]2[C@@H](CO)N3CCCCN(C(=O)Cc4ccccn4)C[C@H]23)cc1
 : -35, -22
Cc1ccc(S(=O)(=O)Nc2ccc3c(c2)CC(=O)N([C@H](C)CO)C[C@@H](C)[C@@H](CN(C)C(=O)Nc2ccc(C(F)(F)F)cc2)O3)cc1
 : 19, 19
COc1ccc(NC(=O)N(C)C[C@@H]2OCCCC[C@H](C)Oc3ccc(NS(=O)(=O)c4cn(C)cn4)cc3C(=O)N([C@H](C)CO)C[C@@H]2C)cc1
 : 20, 9
O=C(NCC[C@@H]1CC[C@H](NS(=O)(=O)c2cccc(F)c2)[C@H](CO)O1)C1CCC1
 : 7, 4
C[C@@H]1CN([C@@H](C)CO)C(=O)c2cc(C#Cc3ccccn3)cnc2O[C@@H]1CN(C)Cc1cncnc1
 : 25, 21
C[C@@H]1CN([C@@H](C)CO)C(=O)c2cccc(NS(=O)(=O)c3cn(C)cn3)c2O[C@H]1CN(C)C(=O)Nc1ccc(C(F)(F)F)cc1
 : 6, 6
C[C@H]1CN([C@@H](C)CO)C(=O)CCCn2nncc2CO[C@H]1CN(C)S(=O)(=O)c1ccccc1F
 : 7, 4
CC(C)NC(=O)N(C)C[C@@H]1Oc2ccc(NC(=O)Cc3ccccc3)cc2C(=O)N([C@H](C)CO)C[C@@H]1C
 : 12, 5
CCCN1[C@@H]2c3ccc(-c4ccccc4)c(=O)n3C[C@H]1[C@H](CO)[C@H]2C(=O)NCCCN1CCOCC1
 : 16, 11
COc1cccc(C(=O)Nc2ccc3c(c2)OC[C@H](C)NC[C@H](C)[C@H](OC)CN(C)C3=O)c1
 : 3, 5
COc1ccc(S(=O)(=O)N(C)C[C@@H]2Oc3cc(-c4ccccc4OC)ccc3S(=O)(=O)N([C@H](C)CO)C[C@@H]2C)cc1
 : -19, -17
COc1ccc2c3c([nH]c2c1)[C@@H](CO)N(C(C)=O)CC31CCN(C(=O)Nc2c(C)noc2C)CC1
 : 19, 18
C/C=C/c1ccc2c(c1)O[C@@H](CN(C)C(=O)c1cccnc1)[C@H](C)CN([C@H](C)CO)S2(=O)=O
 : 4, -5
Cc1noc(C)c1NC(=O)N(C)C[C@@H]1OCCCC[C@@H](C)Oc2ccc(NC(=O)CCC(F)(F)F)cc2C(=O)N([C@@H](C)CO)C[C@H]1C
 : 6, 4
C[C@@H]1CCCCO[C@H](CN(C)S(=O)(=O)c2ccc(F)cc2)[C@@H](C)CN([C@H](C)CO)C(=O)c2cc(NC(=O)C3CCCCC3)ccc2O1
 : -1, 5
C[C@H]1CN([C@@H](C)CO)S(=O)(=O)c2ccc(C#CC3CCCC3)cc2O[C@@H]1CN(C)C
 : ?, .
CCCC#Cc1cnc2c(c1)C(=O)N([C@H](C)CO)C[C@H](C)[C@H](CN(C)C(=O)CCN1CCCCC1)O2
 : -8, -6
CN(C)C(=O)[C@]1(Cc2ccccc2CN=[N+]=[N-])N=C(c2ccc(OCCCO)cc2)O[C@@H]1c1ccccc1
 : ?, .
CNC(=O)C[C@H]1CC[C@H]2[C@H](COc3ccc(NC(=O)Nc4ccc(C)cc4)cc3C(=O)N2C)O1
 : -1, -4
COCC(=O)Nc1ccc2c(c1)C(=O)N(C)C[C@H](OC)[C@@H](C)CN(C(=O)COC)[C@@H](C)CO2
 : -3, -1
COCC(=O)Nc1ccc2c(c1)OC[C@H](C)N(Cc1cccnc1)C[C@H](C)[C@@H](OC)CN(C)C2=O
 : 4, 9
O=C(C[C@H]1CC[C@H](NC(=O)C2CCOCC2)[C@@H](CO)O1)NCC1CCCCC1
 : 0, -6
O=C(c1cccc(F)c1)N1CC[C@@H]2[C@H]1c1cc(-c3ccc(F)cc3)ccc1N[C@@H]2CO
 : 3, 8

# Nine neighbouring entries from above, quoted:
# Each structure is followed by: Vaccinia inh, Vaccinia inh Venus
C[C@@H]1CCCCO[C@H](CN(C)S(=O)(=O)c2ccc(F)cc2)[C@@H](C)CN([C@H](C)CO)C(=O)c2cc(NC(=O)C3CCCCC3)ccc2O1
 : -1, 5
C[C@H]1CN([C@@H](C)CO)S(=O)(=O)c2ccc(C#CC3CCCC3)cc2O[C@@H]1CN(C)C
 : ?, .
CCCC#Cc1cnc2c(c1)C(=O)N([C@H](C)CO)C[C@H](C)[C@H](CN(C)C(=O)CCN1CCCCC1)O2
 : -8, -6
CN(C)C(=O)[C@]1(Cc2ccccc2CN=[N+]=[N-])N=C(c2ccc(OCCCO)cc2)O[C@@H]1c1ccccc1
 : ?, .
CNC(=O)C[C@H]1CC[C@H]2[C@H](COc3ccc(NC(=O)Nc4ccc(C)cc4)cc3C(=O)N2C)O1
 : -1, -4
COCC(=O)Nc1ccc2c(c1)C(=O)N(C)C[C@H](OC)[C@@H](C)CN(C(=O)COC)[C@@H](C)CO2
 : -3, -1
COCC(=O)Nc1ccc2c(c1)OC[C@H](C)N(Cc1cccnc1)C[C@H](C)[C@@H](OC)CN(C)C2=O
 : 4, 9
O=C(C[C@H]1CC[C@H](NC(=O)C2CCOCC2)[C@@H](CO)O1)NCC1CCCCC1
 : 0, -6
O=C(c1cccc(F)c1)N1CC[C@@H]2[C@H]1c1cc(-c3ccc(F)cc3)ccc1N[C@@H]2CO
 : 3, 8

# Additional entries
# Each structure is followed by: Vaccinia inh, Vaccinia inh Venus
C[C@@H]1CN([C@H](C)CO)C(=O)c2cc(NC(=O)NC3CCCCC3)ccc2O[C@H]1CN(C)C(=O)Nc1ccc(F)cc1
 : -8, 8
CC(=O)N(C)C[C@@H]1Oc2cc(-c3cccnc3)ccc2S(=O)(=O)N([C@H](C)CO)C[C@@H]1C
 : 23, 3
O=C(Nc1ccc2c(c1)OCO2)N[C@@H]1CC[C@@H](CCNC(=O)C2CCCCC2)O[C@@H]1CO
 : 11, 3
OC[C@H]1[C@H](c2ccc(-c3ccccc3F)cc2)[C@H]2CN(Cc3ccncc3)CCCCN21
 : 2, -12
COc1ccc(CN(C)C[C@H]2OCCCC[C@@H](C)Oc3ccc(NC(=O)Nc4ccc(F)cc4)cc3C(=O)N([C@@H](C)CO)C[C@@H]2C)cc1
 : ?, .
CCC(=O)N1[C@@H](CO)[C@@H](c2ccccc2)C12CN(C(=O)NC1CCCC1)C2
 : -6, 1
C[C@@H]1CN([C@H](C)CO)C(=O)Cc2cc(NC(=O)Nc3ccc4c(c3)OCO4)ccc2O[C@@H]1CN(C)Cc1ccc(-c2ccccc2)cc1
 : -32, -32
COc1ccc(CN(C)C[C@H]2Oc3ccc(NC(=O)Nc4ccc(OC)cc4)cc3CC(=O)N([C@H](C)CO)C[C@@H]2C)cc1
 : -28, -21
COc1ccc(S(=O)(=O)Nc2ccc3c(c2)[C@@H]2C[C@H](CC(=O)NCC4CC4)O[C@H](CO)[C@@H]2O3)cc1
 : -5, 4
COc1ccc(NC(=O)N(C)C[C@@H]2Oc3ccc(NC(=O)Nc4ccccc4)cc3C(=O)N([C@@H](C)CO)C[C@H]2C)cc1
 : -8, 1
CNC[C@@H]1OCc2ccccc2-c2c(n(C)c3ccccc23)C(=O)N([C@H](C)CO)C[C@H]1C
 : -12, 2
C[C@H](CO)N1C[C@H](C)[C@@H](CN(C)S(=O)(=O)c2ccccc2)OCCCC[C@H](C)Oc2ccc(NC(=O)Nc3ccccc3)cc2C1=O
 : 8, 13
COCC(=O)N1[C@H](C#N)[C@H](c2ccccc2-c2cccc(F)c2)[C@H]1CO
 : 2, -2
CO[C@H]1CN(C)C(=O)c2ccc(NS(=O)(=O)c3ccc(C)cc3)cc2OC[C@H](C)N(Cc2nccs2)C[C@@H]1C
 : 2, -2
Cc1ccc(S(=O)(=O)Nc2ccc3c(c2)C(=O)N([C@@H](C)CO)C[C@@H](C)[C@H](CN(C)S(C)(=O)=O)OCCCC[C@@H](C)O3)cc1
 : 7, 2
Cc1noc(C)c1NC(=O)Nc1cccc2c1O[C@H](CN(C)C(=O)Nc1ccc(C(F)(F)F)cc1)[C@@H](C)CN([C@@H](C)CO)C2=O
 : 12, 15
CN(C)CC(=O)N1[C@H](C(=O)NC2CCCC2)[C@@H](CO)[C@@H]2Cn3c(ccc(-c4ccc(F)cc4)c3=O)[C@@H]21
 : 6, 10
O=C(Nc1ccccc1F)N[C@@H]1CC[C@H](CCNC(=O)C2CCCCC2)O[C@@H]1CO
 : -2, -3
Cc1noc(C)c1NC(=O)Nc1cccc2c1O[C@H](CN(C)C(=O)Nc1c(C)noc1C)[C@H](C)CN([C@H](C)CO)C2=O
 : 8, 4
O=C(C[C@@H]1CC[C@@H]2[C@H](COC[C@@H](O)CN2C(=O)Nc2ccc(F)cc2)O1)NCCc1ccccc1
 : -8, -1
C[C@@H]1CN([C@H](C)CO)C(=O)c2cc(-c3ccncc3)cnc2O[C@@H]1CN(C)C(=O)Cc1ccccn1
 : 36, 15
CO[C@H]1CN(C)C(=O)c2cc(NC(C)=O)ccc2OC[C@H](C)N(C(=O)c2cccnc2)C[C@H]1C
 : 6, 2
O=C(CC1CC1)N1[C@@H](CO)[C@@H]2c3ccccc3N(S(=O)(=O)c3ccc(F)cc3)C[C@@H]21
 : -4, 11
CCCN1C[C@H](C)[C@H](OC)CN(C)C(=O)c2cc(NC(=O)NC3CCCC3)ccc2OC[C@H]1C
 : -16, -16
C[C@@H]1CN([C@H](C)CO)C(=O)c2cccc(NC(=O)CCCCCC(=O)Nc3ccccc3N)c2O[C@H]1CN(C)C(=O)Nc1ccccc1
 : 8, 0
CCS(=O)(=O)N1CC2(C1)[C@@H](c1ccccc1)[C@@H](CO)N2Cc1ccc(F)cc1
 : 0, 4
C[C@@H]1CCCCO[C@@H](CN(C)Cc2ccc(Cl)c(Cl)c2)[C@@H](C)CN([C@H](C)CO)C(=O)c2cc(N(C)C)ccc2O1
 : ?, .
CCCNC(=O)Nc1ccc2c(c1)C(=O)N(C)[C@H]1CC[C@H](CC(=O)NC3CCC3)O[C@@H]1CO2
 : -4, -12
N#C[C@@H]1[C@H](c2ccc(C#CCC3CCCC3)cc2)[C@@H](CO)N1C(=O)CN1CCOCC1
 : -34, -28
CC(C)NC(=O)N1Cc2cc(C(=O)NC3CCCC3)nc(-c3cccc(-c4cccnc4)c3)c2[C@H]1CCO
 : 6, 6

# Remaining list, next part.
# Each structure is followed by: Vaccinia inh, Vaccinia inh Venus
CO[C@H]1CC[C@@H]2CCN(C)C(=O)[C@H](C)[C@@H](OC)CN(C)C(=O)c3cc(C#N)ccc3OC[C@H]1O2
 : 9, 9
C[C@@H]1CN([C@@H](C)CO)C(=O)CCCn2nncc2CO[C@@H]1CN(C)C(=O)c1cc(-c2ccccc2)on1
 : 12&15, 12&15
CCS(=O)(=O)Nc1ccc2c(c1)C(=O)N(C)[C@@H]1CC[C@@H](CC(=O)Nc3ccccc3)O[C@H]1CO2
 : 1, -3
O=C(Cc1ccncc1)Nc1ccc2c(c1)[C@H]1C[C@@H](CC(=O)N3CCc4ccccc4C3)O[C@@H](CO)[C@H]1O2
 : -1, 0
C[C@@H]1CCCCO[C@@H](CN(C)C(=O)CCC(F)(F)F)[C@H](C)CN([C@H](C)CO)C(=O)c2cc(NS(=O)(=O)c3ccccc3)ccc2O1
 : -1, -3
Cc1noc(C)c1NC(=O)Nc1ccc2c(c1)C(=O)N([C@H](C)CO)C[C@H](C)[C@@H](CN(C)Cc1ccc(Cl)c(Cl)c1)O2
 : -8, -9
COc1ccccc1C#Cc1ccc2c(c1)O[C@@H](CN(C)C(C)=O)[C@H](C)CN([C@@H](C)CO)S2(=O)=O
 : ?, .
C[C@H](CO)N1C[C@H](C)[C@H](CN(C)Cc2cccnc2)OCc2cnnn2CCCC1=O
 : 12, 11
C[C@H](CO)N1C[C@H](C)[C@@H](CN(C)C(=O)CCCN(C)C)OCCCC[C@H](C)Oc2ccc(NS(=O)(=O)c3cn(C)cn3)cc2C1=O
 : 17, 9
Cc1ccc(S(=O)(=O)Nc2cccc3c2O[C@H](CN(C)CC2CCCCC2)[C@@H](C)CN([C@H](C)CO)C3=O)cc1
 : 1, 3
C[C@@H]1CCCCO[C@H](CN(C)C(=O)Nc2cccc3ccccc23)[C@@H](C)CN([C@H](C)CO)C(=O)c2cc(N(C)C)ccc2O1
 : 1&14, -1&5
COc1ccccc1CNC(=O)C[C@@H]1CC[C@@H](NC(=O)CC2CC2)[C@@H](CO)O1
 : -6, 0
O=C(C[C@H]1C[C@H]2c3cc(NC(=O)Nc4ccc(C(F)(F)F)cc4)ccc3O[C@H]2[C@H](CO)O1)NCc1cccnc1
 : 12, 6
C[C@H]1CN([C@@H](C)CO)C(=O)c2cccc(NS(C)(=O)=O)c2O[C@@H]1CN(C)Cc1ccc(Cl)c(Cl)c1
 : -9, -2
CNC(=O)C[C@@H]1CC[C@H]2[C@H](COc3ccc(NC(=O)c4ccc(F)c(F)c4)cc3C(=O)N2C)O1
 : 3, 7

# Bioassay records deposited in PubChem by Broad Institute.

# The list is partial; count on the stated rates, not on these rows.
